Screening results from PubChem BioAssay.
VDR inh: Inhibitors of the vitamin D receptor (VDR): qHTS | Vitamin D3 receptor (Homo sapiens), P11473 | VDR-SRC2-3 peptide fluorescence polarization, 2 h | 400,000 tested, 0.93% active | Potency, µM, inactives show max response, negative = inhibition, usual class: inhibitors; active = well fitted inhibition curve with a large enough effect; inconclusive = small, poorly fitted or top-dose-only effect, or another doubt; inactive = no such curve, though single readings can be large or run the other way; note: series mostly up to about 120 µM
Target sequence (P11473 whole entry, looked up): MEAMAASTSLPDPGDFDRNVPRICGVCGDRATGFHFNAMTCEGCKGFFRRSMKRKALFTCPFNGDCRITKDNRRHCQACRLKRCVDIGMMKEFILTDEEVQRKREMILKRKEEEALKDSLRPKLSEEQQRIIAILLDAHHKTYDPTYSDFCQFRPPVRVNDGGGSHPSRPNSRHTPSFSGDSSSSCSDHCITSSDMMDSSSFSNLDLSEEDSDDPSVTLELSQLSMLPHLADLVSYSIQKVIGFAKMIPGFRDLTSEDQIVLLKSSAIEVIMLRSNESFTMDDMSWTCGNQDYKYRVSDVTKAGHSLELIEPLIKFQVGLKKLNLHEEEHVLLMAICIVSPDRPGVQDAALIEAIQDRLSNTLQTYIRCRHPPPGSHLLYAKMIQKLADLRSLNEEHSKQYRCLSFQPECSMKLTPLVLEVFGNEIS
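Fluorescence polarization assay of small-molecule disruption of VDR binding to coregulator peptide SRC2-3. Compounds and controls pin-transferred, then read after 2 h incubation at ambient room temperature.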
The depositor's hits bear a star; u = inconclusive; [ ] = another dose, or the depositor's remark. % is set by controls: 0 for no effect and ±100 for the full control effect; potency is the fitted concentration of half-maximal effect. Only part of the results is shown; count on the stated rates, not on these rows.

SMILES | VDR inh
COc1ccc2[nH]c(C(=O)O)c(NC(=O)c3cc(OC)c(OC)c(OC)c3)c2c1 | 3%
COc1cc(OC)cc(C(=O)NNC(=O)CCNS(=O)(=O)c2ccc(C)c(C)c2)c1 | 7%
COc1cccc2cc(C(=O)N3CCc4ccccc43)c(=O)oc12 | -13%
CC(C)Cc1ccc([C@@H](C)C(=O)NS(C)(=O)=O)cc1 | u
Cc1ccc(S(=O)(=O)N2CCOCC2)cc1C(=O)N1CCN(S(=O)(=O)c2ccccc2F)CC1 | -7%
COc1cc(CNC2CCCC2)c(Br)cc1OCc1ccccc1 | 19%
COC(=O)c1c(-c2ccc(C)cc2)csc1NC(=O)C1CC=CCC1C(=O)O (configuration not stated) | 1%
O=S(=O)(Nc1ccc(Cl)cn1)c1cnc(Cl)c(Br)c1 | -4%
CCOC(=O)c1cc(S(=O)(=O)N(C)c2ccccc2)[nH]n1 | 6%
Cn1c(/C=C/N(Cc2ccccc2)c2ccccc2)c([N+](=O)[O-])c(=O)n(C)c1=O | -12%
O=C(NC1CCCCC1)C1CCN(c2ncccn2)CC1 | -3%
NC(=O)c1ccc(NC(=O)CSc2nnc(-c3ccccn3)n2N)cc1 | 5%
CN(C)S(=O)(=O)c1cccc(-c2nn(-c3ccccc3)cc2/C=C2\SC(=S)N(CC(=O)O)C2=O)c1 | -16%
Cc1ccc(NC(=O)COS(=O)c2ccc(C)cc2)cc1 (configuration not stated) | 20%
O=C(NCCc1nnc2ccc(NCc3ccc(Cl)cc3)nn12)c1ccccc1 | 16%
CCOC(=O)c1ccc(NC(=O)c2c(N3CCCC3=O)c3cc(OC)ccc3n2C)cc1 | 14%
O=C(C1=C[C@H](c2ccc(Br)cc2)C[C@H](OCCCCO)O1)N1CCN(Cc2ccccc2)CC1 | 6%
c1ccc(CC2CCN(c3nnnn3-c3ccccc3)CC2)cc1 | -1%
O=C(NCc1ccccc1Cl)c1ccc2c(c1)nnn2C1CCCC1 | 16%
Cc1ccc(-c2cccc(CN3CCN(C4CCN(C(C)C)CC4)C(CCO)C3)c2)o1 (configuration not stated) | -15%
CN1CCN(C(=O)c2ccc3c(=O)n4c(nc3c2)CCCCC4)CC1 | -2%
CCC(C)NC(=O)c1cn(-c2cccc(C)n2)cn1 (configuration not stated) | 5%
CC(C)CNC(=O)c1ccc(C2SCC(=O)N2Cc2ccccc2)cc1 (configuration not stated) | 79µM*
CC1=C/C(=C(\c2cc(C)c(O)c(Br)c2)c2ccccc2S(=O)(=O)O)C=C(Br)C1=O | 132%[activator]
Cc1c(Cl)cnc(NC(=O)COC(=O)C2CCCC2)c1Cl | 16%
CC1N/C(=C\C(=O)c2ccccc2)N(O)C1(C)C (configuration not stated) | 2%
COc1ccccc1COc1ccc2c(C)c(CCC(=O)O)c(=O)oc2c1C | u
COc1ccc(-c2nn3c(-c4cc(-c5ccccc5)n[nH]4)nnc3s2)cc1OC | -9%
O=S(=O)(Nc1ccc(Cl)cn1)c1ccc(Cl)cc1 | -5%
N/C(=N\O)c1ccccc1N1CCCCC1 | 9%
O=C(NCc1ccc(Cl)cc1)c1noc2c1CCCC2 | -11%
Cc1ccc(N2C(=O)CS(=O)(=O)C23C(=O)N(C)c2ccccc23)cc1F (configuration not stated) | -5%
CC1(C)CC(NC(=O)C(Cl)(Cl)Cl)CC(C)(C)N1 | -21%
N#Cc1nc(-c2cccc3ccccc23)oc1NCCN1CCOCC1 | -5%
CCCCNS(=O)(=O)c1ccc2nc(-c3cccnc3)cc(C(=O)NCCCOC(C)C)c2c1 | 0%
CCOc1ccc(C(=O)NCC(=O)N2CCC3(CC2)NCCc2[nH]cnc23)cc1 | -1%
CCOC(=O)N1CCN(C(=O)c2ccc(CNS(=O)(=O)c3ccc(OC)cc3)cc2)CC1 | 13%
O=C(CC1CCCCC1)NCCCN1CCOCC1 | 7%
COc1ccc2c(c1OC)C(=O)N1c3cccc(Cl)c3C(=O)OC21 (configuration not stated) | 4%
Cc1ccc2c(c1)-c1c(cnc3cc(-c4ccc(Cl)cc4)nn13)CO2 | -9%
CCOc1ccccc1/C=N/NC(=O)c1cc(C(C)C)[nH]n1 | -10%
Cn1c(=O)c(S(=O)(=O)C(C)(C)C)c(O)c2ccccc21 | -22%
COc1ccc(C(=O)N2CCN(C(=O)COc3ccc(Br)cc3)CC2)cc1OC | -25%
CN(CC(=O)NC1CC1)S(=O)(=O)c1ccc(Br)cc1 | 4%
CCc1ccc(C(=O)c2cn(CC(=O)Nc3cc(OC)cc(OC)c3)c3ccc(CC)cc3c2=O)cc1 | -3%

3 compounds out of the list above, sorted by the value under VDR inh, high to low:
SMILES | VDR inh
CCOC(=O)N1CCN(C(=O)c2ccc(CNS(=O)(=O)c3ccc(OC)cc3)cc2)CC1 | 13%
COc1ccc2c(c1OC)C(=O)N1c3cccc(Cl)c3C(=O)OC21 (configuration not stated) | 4%
CC1(C)CC(NC(=O)C(Cl)(Cl)Cl)CC(C)(C)N1 | -21%

Next section
SMILES | VDR inh
Cc1cc(C)c(C#N)c(SCC(=O)N(CCC#N)c2ccc3c(c2)OCCO3)n1 | -12%
NC(=S)NNC(=O)COc1ccccc1O | 5%
CCOc1ccc(NC(=O)COc2nsnc2N2CCCCC2)cc1 | -4%
Cc1cccc(OC(=O)c2ccncc2)c1C | -10%
CCN1CCN(c2cc(C)c3cc(NC(=S)N4CCCC4)ccc3n2)CC1 | 10%
Cc1ccc(S(=O)(=O)N2CCN(c3nc(-c4cccs4)nc(C)c3C)CC2)cc1 | -25%
CC(C)Cc1cc(C(=O)N2CCCC(CO)(Cc3ccc(F)cc3)C2)no1 (configuration not stated) | 14%
O=C(NCc1ccc2c(c1)CCO2)Nc1ccccc1 | 5%
COc1ccc(N2CCN(CC(=O)Nc3ncc(C)s3)CC2)cc1 | -15%
CCOC(=O)Nc1ccc2c(CN3CCN(S(=O)(=O)c4ccccc4F)CC3)cc(=O)oc2c1 | -13%
CCCCn1c(=N)n(CC(=O)O)c2ccccc21 | -1%
COc1ccc(NC(=O)COc2ccc(S(=O)(=O)NC3CCCCC3)cc2)cc1OC | -21%
Cc1ccccc1C(=O)Nc1nc(-c2nnn(-c3ccc(C(C)C)cc3)c2C)ns1 | 4%
C=CCn1c(=N)n(CC(=O)c2ccc(Cl)cc2)c2ccccc21 | -9%
Cc1ccc(C(=O)OCC(=O)NC(C)C2CC3CCC2C3)cc1N (configuration not stated) | -5%
CCN(CC)S(=O)(=O)c1ccc(C(=O)NCC(c2ccc(OC)cc2)N2CCOCC2)cc1 (configuration not stated) | -18%
CC(OC(=O)c1cc(=O)[nH]c2ccccc12)C(=O)Nc1ccccc1F (configuration not stated) | -14%
COc1ccc(Cc2nnc(NC(=O)c3cc(OC)c(OC)c(OC)c3)s2)cc1 | 1%
Cn1nc(-c2ccc(Cl)cc2)cc1NC(=O)CSCC(=O)O | 7%
COc1ccc(NC(=O)CSc2nc3ccccc3nc2N2CCC(C)CC2)cc1 | u
Cc1ccc(CNC(=O)c2c(C)oc3nc(C)nc(N4CCOCC4)c23)cc1 | 13%
S=C(Nc1ccc(N2CCOCC2)cc1)Nc1ccc2nc(-c3ccco3)c(-c3ccco3)nc2c1 | -18%
COc1cc(/C=C(\NC(C)=O)C(=O)O)cc(OC)c1OC | 16%
CCCCn1nnnc1NCc1ccc(N(CC)CC)cc1 | -18%
CC1=C([N+](=O)[O-])C(c2ccccc2Cl)NC(=O)N1 (configuration not stated) | -10%
O=C(COc1ccc([N+](=O)[O-])cc1)NNC(=O)Nc1cccc(F)c1 | 15%
O=C(O)c1ccccc1NS(=O)(=O)c1cccc(NS(=O)(=O)c2cc(Br)ccc2Br)c1 | -19%
Cc1ccc(CNC(=O)CN2C(=O)C3(SCC(=O)N3c3cc(C)cc(C)c3)c3ccccc32)cc1 (configuration not stated) | 3%
COCCN1C(=O)CS/C1=C(/C#N)C(=O)NCc1ccco1 | 108%[activator]
CCC(C(=O)NCCc1ccco1)n1nc(C)c2c(C)n(-c3ccccc3)nc2c1=O (configuration not stated) | 2%
CCCCCn1ccc(=N)cc1 | 3%
COc1ccc(NC(=O)CNCc2ccc(Cl)cc2)cc1S(=O)(=O)N1CCOCC1 | -9%
O=C(NCCCc1ccccc1)C(=O)NCC1OCCN1S(=O)(=O)c1cc(F)ccc1F (configuration not stated) | -2%
CCCc1nnc(NC(=O)Cn2c(=O)oc3ccccc32)s1 | -22%
CN(C)NC1CCS(=O)(=O)C1 (configuration not stated) | 17%
COc1ccc(S(N)(=O)=O)cc1C(=O)NNC(=O)C1COc2ccccc2O1 (configuration not stated) | -2%
CC12/C(=N/O)C3C4CC5C3/C(=N/O)C1C5C42 (configuration not stated) | 1%
Cc1nnc(NC(=O)C2CCN(S(=O)(=O)c3ccc(F)c(F)c3)CC2)o1 | -5%
Nc1nc(N)c2cc([N+](=O)[O-])ccc2n1 | 1%
CCCCCCCCc1c(O)nc(-n2[nH]c(C)c(CCO)c2=O)[nH]c1=O | -5%
COc1ccc(C[C@H]2CN3C(=NC[C@@H]3Cc3ccc(O)cc3)N2CCNC(=O)c2ccc(C)c(Br)c2)cc1 | 5%
O=S(=O)(CCc1ccccc1)c1nnnn1C1CCCCC1 | -3%
Cc1ccc(-n2cc(C(=O)O)c(=O)cc2C)c(C)c1 | -5%
Cc1nn(CC(=O)Nc2ccc(N3CCOCC3)cc2)c(C)c1Br | 1%
COc1cc(C)c(C#N)c(OC)n1 | 2%

Reformatted: 6 of the compounds above.
molecule	VDR inh
CCN(CC)S(=O)(=O)c1ccc(C(=O)NCC(c2ccc(OC)cc2)N2CCOCC2)cc1 (configuration not stated)	-18%
CC(OC(=O)c1cc(=O)[nH]c2ccccc12)C(=O)Nc1ccccc1F (configuration not stated)	-14%
COc1ccc(Cc2nnc(NC(=O)c3cc(OC)c(OC)c(OC)c3)s2)cc1	1%
Cn1nc(-c2ccc(Cl)cc2)cc1NC(=O)CSCC(=O)O	7%
COc1ccc(NC(=O)CSc2nc3ccccc3nc2N2CCC(C)CC2)cc1	u
Cc1ccc(CNC(=O)c2c(C)oc3nc(C)nc(N4CCOCC4)c23)cc1	13%

(further entries)
SMILES | VDR inh
CS(=O)(=O)N1CCC2(CCN(c3ccncc3)CC2)CC1 | 1%
COc1ccccc1CNC(=S)NCc1ccc(F)cc1 | 6%
C=CCn1c(N)c(C(=O)Nc2cccc(C)c2)c2nc3ccccc3nc21 | 1%
O=C(COc1cc2oc(=O)c3c(c2cc1Cl)CCCC3)N1C[C@H]2C[C@@H](C1)c1cccc(=O)n1C2 | -5%
COc1cc(OC)cc(C(=O)NCCC(=O)NCCc2ccc(OC)c(OC)c2)c1 | -9%
CCn1c(Cc2cccs2)nnc1SCC(=O)c1ccc(C)cc1 | -20%
CCOC(=O)N1CCN(C(=O)COc2ccc(Cl)cc2C)CC1 | 9%
Cc1ccc(N2CC(C(=O)NCc3nnnn3-c3ccc(C)c(C)c3)CC2=O)cc1C (configuration not stated) | 12%
CCN(Cc1ccccc1)C(=O)CSc1nc(C)cc(C)c1C#N | u
CCOc1ccc(CCNC(=O)COC(=O)COc2ccc(C(=O)CC)cc2)cc1OCC | 6%
Cc1ccc(C)c(NC(=O)C2=CCN(S(=O)(=O)c3ccc(F)cc3)CC2)c1 | -12%
O=C(c1ccco1)N1CCC2(CC1)CN(c1ccccn1)C2 | -7%
O=C(Nc1ccc2oc(-c3ccccc3)nc2c1)C1CCCO1 (configuration not stated) | -7%
Cc1ccc(S(=O)(=O)N2CCN(c3nc(-c4cccs4)nc4cccnc34)CC2)cc1 | -7%
CN1CCN(CC(=O)Nc2cc(N3CCOCC3)ccc2[N+](=O)[O-])CC1 | 25%

Continued; it opens with the two that closed the last part.
SMILES | VDR inh
Cc1ccc(S(=O)(=O)N2CCN(c3nc(-c4cccs4)nc4cccnc34)CC2)cc1 | -7%
CN1CCN(CC(=O)Nc2cc(N3CCOCC3)ccc2[N+](=O)[O-])CC1 | 25%
O=C(OCc1nnc(-c2ccccc2)o1)c1ccc2ccccc2n1 | 8%
COc1ccc(CCN2Cc3c(cccc3[N+](=O)[O-])C2=O)cc1OC | -15%
Cc1nc2ncnn2c(N2CCCC(C(=O)Nc3ccc4c(c3)CCC4)C2)c1C (configuration not stated) | 1%
Cc1cccc(NC(=O)c2cc(NC(=O)C3CC=CCC3C(=O)O)ccc2N2CCOCC2)c1 (configuration not stated) | 1%
Cc1ccc(CN2CCC(CNC(=O)Nc3ccc(C)c(C)c3)C2)cc1 (configuration not stated) | 13%
CCOc1ccc(OCCCC(=O)Nc2cc(S(=O)(=O)N3CCOCC3)ccc2N2CCOCC2)cc1 | 13%
CSC1=C(C#N)C(c2ccncc2)C(C(=O)Nc2ccccc2)=C(C)N1 (configuration not stated) | 26%
CCC(=O)N1CCc2cc(Br)cc(S(=O)(=O)Nc3ccc(C)cc3C)c21 | 13%
C=CC[C@@H](CC(=O)N(CCO)Cc1ccccc1)C(=O)N[C@@H](C)COC(=O)[C@@H](CC=C)Cc1ccc(F)cc1 | -10%
COCCNC(=O)[C@@]1(C)C=C[C@@H](Cc2ccccc2)N1C(=O)c1ccccc1 | -5%
CCCCN(CC)Cc1ccc(CNC(=S)Nc2cccc(F)c2)o1 | -25%
C=CCNC(=O)CC1C(=O)NCCN1Cc1c(F)cccc1Cl (configuration not stated) | -4%
COc1ccccc1CCC(=O)Oc1ccc(C#N)cc1OC | -5%
Cc1ccc(CNC(=O)N2CCN(S(=O)(=O)c3ccccc3)CC2)cc1 | -12%
CCOc1ccc(NC(=O)c2oc3ccccc3c2NC(=O)c2cc(C)cc(C)c2)cc1 | 8%
COc1ccc(-c2nc(CN(C)C(C)c3ccon3)c(C)o2)c(C)c1C (configuration not stated) | -9%
CCc1ccc(C(=O)CN2C(=O)NC(C)(CCc3ccccc3)C2=O)cc1 (configuration not stated) | -6%
COc1ccccc1NC(=O)[C@@H]1CCCN1S(=O)(=O)c1ccc(Cl)cc1 | -7%
O=C(c1noc2c1CCCCC2)N1CCN(c2cccc(C(F)(F)F)c2)CC1 | -3%

Look-ups from the entries so far.
O=C(c1noc2c1CCCCC2)N1CCN(c2cccc(C(F)(F)F)c2)CC1 in VDR inh: -3%
CCc1ccc(C(=O)CN2C(=O)NC(C)(CCc3ccccc3)C2=O)cc1 (configuration not stated) in VDR inh: -6%
